AmpC inh no det – blocks E. coli AmpC beta-lactamase in absence of detergent | P00811 | AmpC nitrocefin hydrolysis, absorbance 480 nm, no detergent; potencies from a single point are estimates | Potency, µM (highest dose often 28.7 µM), for the others: at the top dose activity change, negative = inhibition | actives 1.8% (n = 71,000) | AID 585; active = falling curve, for most hits resting on a single point; inconclusive = weak or doubtful change; inactive = flat or rising curve; note: % of control where 0% means no effect; about half of the hits show no inhibition at the top dose; a quarter of the inactives give rising signals
Target sequence (P00811 whole entry, looked up): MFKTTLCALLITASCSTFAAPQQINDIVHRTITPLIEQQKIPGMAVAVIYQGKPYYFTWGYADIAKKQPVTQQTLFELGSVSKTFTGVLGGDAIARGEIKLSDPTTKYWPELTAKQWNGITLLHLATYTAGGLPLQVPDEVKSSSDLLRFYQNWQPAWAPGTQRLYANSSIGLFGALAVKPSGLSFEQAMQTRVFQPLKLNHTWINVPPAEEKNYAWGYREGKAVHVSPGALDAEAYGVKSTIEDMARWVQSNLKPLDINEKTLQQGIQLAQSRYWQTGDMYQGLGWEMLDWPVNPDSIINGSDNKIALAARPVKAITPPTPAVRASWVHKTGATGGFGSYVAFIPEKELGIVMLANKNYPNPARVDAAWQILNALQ
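AmpC, 20 mM phosphate pH 7.0; 15 min cpd preinc, RT; start with nitrocefin (800 uM stock); A480 kinetic read, 20 s intervals, 4 min. No-enzyme wells = negative control.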
* marks the source's active call; other numbers are inactive results; & = joins results of further samples; [ ] = dose if it differs, or a comment. Potency is the fitted concentration of half-maximal effect.

For Brc1ccccc1-c1nnc(COc2ncnc3c2cnn3-c2ccccc2)o1 the results were AmpC inh no det 8%.
Cc1cc(S(=O)(=O)NC(C)C)ccc1OCC(=O)N1CCN(Cc2ccc3c(c2)OCO3)CC1 was read as AmpC inh no det inconclusive.
Screening O=c1c2c(nc3nc(SCc4ccccc4)[nH]n13)CCC2 returned AmpC inh no det -12%.
For COc1cccc(-c2cncnc2NCc2cccc(C)c2)c1 the results were AmpC inh no det 13%.
For CC(C)(O)C#Cc1ccccc1C(=O)NC(CC(N)=O)C(=O)O (stereo not drawn) the results were AmpC inh no det -11%.
`CN(C)S(=O)(=O)c1cccc(C(=O)C2=C3SC=C(c4ccccc4)N3CC2)c1` gave AmpC inh no det 65%.
Screening Cc1cc(NS(=O)(=O)c2ccc(NC(=O)C(C)N3C(=O)c4ccccc4C3=O)cc2)nc(C)n1 (stereo not drawn) returned AmpC inh no det 2%.
For COc1ccc(-c2nc(-c3ccc(NC(=O)c4ccc(Br)o4)cc3)no2)cc1OC the results were AmpC inh no det 36%.
For CC1CC(C)CN(CC(=O)Nc2ccc(S(N)(=O)=O)cc2)C1 (stereo not drawn) the results were AmpC inh no det 2%.
`CC1(Cc2cn(CCC#N)c3ccccc23)OCCO1` gave AmpC inh no det -20%.
O=C(O)CCC(=O)Nc1ccc2c(c1)oc1ccccc12 was read as AmpC inh no det 6%.
Screening COCCCNC(=O)CCn1c(=O)c2ccccc2n(CC(=O)Nc2ccc(C)cc2C)c1=O returned AmpC inh no det 30%.
CCCC1=C(C(=O)OCC)C(c2ccc(O)cc2)n2ncnc2N1 (stereo not drawn) was read as AmpC inh no det -6%.
Screening O=C(CSCc1cnn(-c2ccccc2)c1-n1cccc1)NCc1cccs1 returned AmpC inh no det 7%.
Screening C=CCn1c(=O)/c(=C/c2ccc(Cl)cc2)s/c1=C(/C#N)c1nnc2n1CCCCC2 returned AmpC inh no det 119%.
Screening COc1ccc(C(=O)NCC2OCCc3ccccc32)c(O)c1 (stereo not drawn) returned AmpC inh no det -3%.
Screening O=c1ccc2cc(O[C@H]3O[C@@H](CO)[C@@H](O)[C@@H](O)[C@@H]3O)c(O)cc2o1 returned AmpC inh no det -2%[12.8 µM].
Screening O=C(O)CCC(=O)NC1CCCCCCC1 returned AmpC inh no det 0%.
For c1ccc(-n2nnnc2SCc2cn3ccccc3n2)cc1 the results were AmpC inh no det 14%.
`COc1ccc(N=c2oc3c(OC)cccc3cc2C(=O)NCc2ccco2)cc1OC` gave AmpC inh no det 50%.
`CN(Cc1nc(-c2ccccn2)no1)S(=O)(=O)c1ccc(Br)cc1` gave AmpC inh no det 17%.
`COC(=O)c1ccc(CSc2nc3c(cnn3-c3ccccc3)c(=O)[nH]2)o1` gave AmpC inh no det 4%.
`CCOc1ccccc1-c1nnc(SCC(=O)Nc2ccccc2)o1` gave AmpC inh no det 13%.
Screening O=C(CSc1nnc(COc2ccccc2)o1)Nc1nccs1 returned AmpC inh no det -4%.
`CCC(c1nnnn1CCOC)N1CCN(c2cccc(C(F)(F)F)c2)CC1` (stereo not drawn) gave AmpC inh no det 75%.
Screening [O-][n+]1onc2c1C(N1CCOCC1)CCC2N1CCOCC1 (stereo not drawn) returned AmpC inh no det 3%.
COc1ccc(S(=O)(=O)NC(CC(=O)N2CCc3ccccc32)c2ccco2)cc1 (stereo not drawn) was read as AmpC inh no det 3%.
Screening Cc1cc(N2CCN(c3ccccc3)CC2)nc(-n2nc(C)cc2C)n1 returned AmpC inh no det 117%.
For COc1ccc(NC(=O)Nc2cccs2)cc1OC the results were AmpC inh no det -19%.
Screening Cc1cccn2cc(CNC(=O)CC3CCCC3)nc12 returned AmpC inh no det -8%.

Structures shown so far with a cyano group (2):
`CC1(Cc2cn(CCC#N)c3ccccc23)OCCO1` gave AmpC inh no det -20%.
Screening C=CCn1c(=O)/c(=C/c2ccc(Cl)cc2)s/c1=C(/C#N)c1nnc2n1CCCCC2 returned AmpC inh no det 119%.

Other entries follow:
COc1ccc(C)cc1NC(=O)C1CCN(S(=O)(=O)c2cccc3cccnc23)CC1 was read as AmpC inh no det 36%.
COCCn1c(SCC#N)nnc1-c1ccccc1O was read as AmpC inh no det -10%.
C/C=C/Cn1c(SCc2ccccc2)nc2c1c(=O)[nH]c(=O)n2C was read as AmpC inh no det 8%.
`N#Cc1c(N2CCN(C(=O)c3ccco3)CC2)nc(-c2ccccc2)c2c1CCCC2` gave AmpC inh no det 45%.
For CCn1c(=N)c(C(=O)OC)cc2c(=O)n3ccccc3nc21 the results were AmpC inh no det -6%.
Screening O=C(NC1CCCC1)c1cnn2c(C(F)(F)F)cc(-c3ccco3)nc12 returned AmpC inh no det 39%.
Screening Cc1nc(SCC(=O)Nc2cccc(Cl)c2)n[nH]1 returned AmpC inh no det 1%.
For CN1CCN(Cc2nc3c(c(=O)n(C)c(=O)n3C)n2Cc2ccccc2Cl)CC1 the results were AmpC inh no det -21%.
`O=C(NCCN1CCOCC1)c1ccncc1` gave AmpC inh no det -3%.
`CC(C)CC(C)N` (stereo not drawn) gave AmpC inh no det -5%.
Screening Cc1ccc2cc3cc(C(=O)NCCCN4CCCCCC4)oc3nc2c1 returned AmpC inh no det 48%.
`COc1ccc(S(N)(=O)=O)cc1C(=O)NCC1(N2CCCCC2)CCCCC1` gave AmpC inh no det -15%.
`CCOC(=O)N1CCN(C(=O)CSc2nnc(-c3cc(OC)ccc3OC)o2)CC1` gave AmpC inh no det 67%.
`CCN[C@@H]1C[C@H](N)[C@H](O[C@H]2OC(CN)=CC[C@H]2N)[C@@H](O)[C@H]1O[C@H]1OC[C@@](C)(O)[C@@H](NC)[C@@H]1O` gave AmpC inh no det -4%[12.8 µM].
`COCC(=O)NCc1ccc2c(c1)cc(C)n2C` gave AmpC inh no det 0%.

The closing 2 records of the part above open the next one.
`CCN[C@@H]1C[C@H](N)[C@H](O[C@H]2OC(CN)=CC[C@H]2N)[C@@H](O)[C@H]1O[C@H]1OC[C@@](C)(O)[C@@H](NC)[C@@H]1O` gave AmpC inh no det -4%[12.8 µM].
`COCC(=O)NCc1ccc2c(c1)cc(C)n2C` gave AmpC inh no det 0%.
`O=C(CSc1nnc(COc2ccccc2)n1Cc1ccco1)c1ccc(F)cc1` gave AmpC inh no det 17%.
`c1ccc(C2=Nn3c(nnc3-c3cc(-c4ccccc4)n[nH]3)SC2)cc1` gave AmpC inh no det 38%.
`O=C1N=C(N2CCOCC2)CS1` gave AmpC inh no det -6%.
For O=C(NCCCn1ccnc1)c1ccc2c(c1)OCCO2 the results were AmpC inh no det 5%.
`CCOC(=O)CCc1c(C)nc(SCCCn2c(=O)[nH]c3ccccc32)c(C#N)c1C` gave AmpC inh no det 43%.
Screening Cc1nc2sccn2c1-c1nc(C2CC2)c(C(=O)c2ccc3c(c2)NC(=O)CO3)s1 returned AmpC inh no det 29%.
O=C(CNS(=O)(=O)c1cccs1)Nc1ccc2c(c1)OCCO2 was read as AmpC inh no det -12%.
`Cc1cc(C)c(NC(=O)C2CCCN2CCO)c(C)c1` (stereo not drawn) gave AmpC inh no det 0%.
`COc1ccc(C(=O)N2CCSC2=S)cc1OC` gave AmpC inh no det 8%.
For Cc1ccc2cc(CN(CCN3CCCC3)C(=O)Nc3ccc(F)cc3)c(=O)[nH]c2c1C the results were AmpC inh no det 74%.
For CC(Oc1ccccc1)C(=O)Nc1ccc(S(=O)(=O)N2CCOCC2)cc1 (stereo not drawn) the results were AmpC inh no det 37%.
`N#Cc1ccccc1Cn1c(=O)n(Cc2ccc(C(=O)NCc3ccco3)cc2)c(=O)c2ccccc21` gave AmpC inh no det -16%.
`COCC(=O)Nc1nnc(-c2cccs2)s1` gave AmpC inh no det -3%.
O=C(NCc1ccccn1)C1CCC(=O)N1C1CCCC1 (stereo not drawn) was read as AmpC inh no det -3%.
For Fc1ccc(NCc2cn3ccccc3n2)cc1 the results were AmpC inh no det 13%.
`O=C(COc1ccc2oc3c(c2c1)CCCC3)Nc1ccccn1` gave AmpC inh no det 0%.
Screening Cc1ccc(-n2ncc3c(Nc4c(C)n(C)n(-c5ccccc5)c4=O)ncnc32)c(C)c1 returned AmpC inh no det 28%.
Screening COCCCn1c(=N)c(C(=O)NCc2ccc3c(c2)OCO3)cc2c(=O)n3ccccc3nc21 returned AmpC inh no det 29%.
For Cc1c(C(=O)O)c2cc(O)ccc2n1-c1ccccc1 the results were AmpC inh no det -18%.
`COc1ccc(NC(=O)N(C2CCCCC2)C(C)c2ccco2)c(OC)c1` (stereo not drawn) gave AmpC inh no det 41%.
`Nc1ccc(S(=O)(=O)c2ccc(NC(=O)c3cccnc3)cc2)cc1` gave AmpC inh no det -3%[5.75 µM].
C=CCn1c(SCC(=O)Nc2cc3oc4ccccc4c3cc2OC)nnc1-c1cnccn1 was read as AmpC inh no det 86%.
CCN(CC)C(=O)c1cc(-c2ccccc2OC)on1 was read as AmpC inh no det 29%.
For O=S(=O)(c1ccc(S(=O)(=O)N2CCN(Cc3ccccc3)CC2)cc1)N1CCOCC1 the results were AmpC inh no det 8%.
CCOC(=O)c1ccc(S(=O)(=O)N2CCC(C(=O)OCC)CC2)cc1 was read as AmpC inh no det 41%.
Screening CC[C@H]1CN2CC[C@@H]1C[C@H]2[C@@H](O)c1ccnc2ccc(OC)cc12 returned AmpC inh no det -17%[12.8 µM].
For O=C(O)C(Br)Br the results were AmpC inh no det -14%.
For N#Cc1ccc(CN2CCC3(CC2)CCN(C(=O)c2ccco2)CC3)cc1 the results were AmpC inh no det 1%.
C=C1[C@@H](O)C2C=CC[C@H](C)C(=O)[C@@](C)(O)C=C[C@@H](OC(C)=O)[C@@]23C(=O)N[C@H](Cc2ccccc2)[C@@H]3[C@@H]1C (stereo partly drawn) was read as AmpC inh no det 45%.
For CCOC(=O)c1ccc(S(=O)(=O)n2c(CN3CCCCC3)nc3ccccc32)cc1 the results were AmpC inh no det 56%.

Compounds from the list above with an NH in an aromatic ring, in the order listed:
Screening O=c1c2c(nc3nc(SCc4ccccc4)[nH]n13)CCC2 returned AmpC inh no det -12%.
`COC(=O)c1ccc(CSc2nc3c(cnn3-c3ccccc3)c(=O)[nH]2)o1` gave AmpC inh no det 4%.
C/C=C/Cn1c(SCc2ccccc2)nc2c1c(=O)[nH]c(=O)n2C was read as AmpC inh no det 8%.
Screening Cc1nc(SCC(=O)Nc2cccc(Cl)c2)n[nH]1 returned AmpC inh no det 1%.
`c1ccc(C2=Nn3c(nnc3-c3cc(-c4ccccc4)n[nH]3)SC2)cc1` gave AmpC inh no det 38%.
`CCOC(=O)CCc1c(C)nc(SCCCn2c(=O)[nH]c3ccccc32)c(C#N)c1C` gave AmpC inh no det 43%.
For Cc1ccc2cc(CN(CCN3CCCC3)C(=O)Nc3ccc(F)cc3)c(=O)[nH]c2c1C the results were AmpC inh no det 74%.

The main list resumes with the 4 entries that preceded the break.
For O=C(O)C(Br)Br the results were AmpC inh no det -14%.
For N#Cc1ccc(CN2CCC3(CC2)CCN(C(=O)c2ccco2)CC3)cc1 the results were AmpC inh no det 1%.
C=C1[C@@H](O)C2C=CC[C@H](C)C(=O)[C@@](C)(O)C=C[C@@H](OC(C)=O)[C@@]23C(=O)N[C@H](Cc2ccccc2)[C@@H]3[C@@H]1C (stereo partly drawn) was read as AmpC inh no det 45%.
For CCOC(=O)c1ccc(S(=O)(=O)n2c(CN3CCCCC3)nc3ccccc32)cc1 the results were AmpC inh no det 56%.
Screening CC1CC=C2C(C#N)=C(N)C(C#N)(C#N)C(c3cccs3)C2C1 (stereo not drawn) returned AmpC inh no det -16%.
`COc1ccc(C)cc1NS(=O)(=O)c1ccc(NS(=O)(=O)c2ccc(NC(C)=O)cc2)cc1` gave AmpC inh no det -6%.
`O=c1cc(N2CCOCC2)oc2c(-c3ccccc3)cccc12` gave AmpC inh no det 25%&-7%.
Screening Cc1ccnc2c1NC(=O)c1cccnc1N2C1CC1 returned AmpC inh no det -3%&-6%.
Screening O=C(CSc1nnc(-c2cnccn2)n1Cc1ccco1)c1ccc(Cl)cc1 returned AmpC inh no det -16%.
`CC1CCCN(C(=O)Cn2c(=O)oc3ccccc32)C1` (stereo not drawn) gave AmpC inh no det -2%.
Cc1cc2cc(C(c3nnnn3Cc3ccco3)N3CCc4ccccc43)c(=O)[nH]c2cc1C (stereo not drawn) was read as AmpC inh no det -7%.
Cc1ccc(CN2C(=O)NC(=O)C3(Cc4c(nc5ccccn5c4=O)N4CCCCCC43)C2=O)cc1 (stereo not drawn) was read as AmpC inh no det 0%.
For COC(=O)CSc1nc2cc3c(cc2cc1C)OCCO3 the results were AmpC inh no det 14%.
`CCOC(=O)C1=CSC2=NS(=O)(=O)CCN12` gave AmpC inh no det -5%.
`CCc1nnc(NC(=O)c2ccc(S(=O)(=O)N3CCCCC3C)cc2)s1` (stereo not drawn) gave AmpC inh no det 3%.
`CCOc1ccc(NC(=O)CN2C(=O)C3CC=CCC3C2=O)cc1` (stereo not drawn) gave AmpC inh no det 0%.
`CCOC(=O)N1CCN(S(=O)(=O)c2cc(OCC(N)=O)c(C)cc2Cl)CC1` gave AmpC inh no det 73%.
O=c1cc(CN2CCN(c3ccc(F)cc3)CC2)nc2sccn12 was read as AmpC inh no det 7%.
`COc1ccc(Nc2nc(C)cc(C)c2C(N)=O)c(OC)c1` gave AmpC inh no det 8%.
`Oc1ccc(C(=S)N2CCCCC2)cc1Cl` gave AmpC inh no det -1%.
`CCC(C)NC(=O)Cn1cc2c(n1)CCC(C)C2` (stereo not drawn) gave AmpC inh no det 9%.
`Cc1nnc(SCC2CCCO2)n1-c1ccccc1` (stereo not drawn) gave AmpC inh no det -1%.
Screening CCC/C=C(\CCC)C(NS(=O)(=O)c1ccc(Cl)cc1)c1ccc(C(=O)OC)cc1 (stereo not drawn) returned AmpC inh no det -18%.
`CN(CC(O)COCc1cccs1)C1CCCCC1` (stereo not drawn) gave AmpC inh no det -1%.
Screening O=C(O)C1CCCN1C(=O)Nc1ccc(F)cc1 (stereo not drawn) returned AmpC inh no det -16%.
For CN(C)c1ccc(-c2nn3c(-c4ccccc4Cl)nnc3s2)cc1 the results were AmpC inh no det 48%.
N#Cc1c(N)c(C(=O)c2ccccc2)n2c1CCC2 was read as AmpC inh no det -6%.

Source: PubChem (National Center for Advancing Translational Sciences (NCATS))

The list is partial. The share of hits here may be higher or lower than overall.
